V. cholerae motility: Vibrio cholerae motility inhibitors, OD read-out (AID 588778); Vibrio cholerae motility, OD read-out; higher % means a stronger effect; test concentration not given here; primary cut-off and reference of the scale not given here; strong numbers were not always called active; inhibition, %, or IC50 in µg/mL where a hit was titrated; 10,000 tested, under 10 active; in the data active means confirmed in a dose series
V. cholerae motility viability: second read-out of V. cholerae motility, no call of its own (marks repeat the call); inhibition, %; measured here: bacterial viability at 10 ug/mL;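 higher means fewer living bacteria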
Active calls of the source: *. The list is partial; rates above refer to the full screens.

SMILES | V. cholerae motility | V. cholerae motility viability
Cc1ccc(C(C2=C(O)c3ccccc3C(=O)C2=O)c2ccccc2)cc1 (configuration not stated) | 26% | 7

Screening data deposited in PubChem BioAssay by Southern Research Institute.
